TRPML1 inh – inhibitors of human TRPML1 channel; Q9GZU1; TRPML1-inducible cells, Ca2+ dye fluorescence, FDSS; active compounds read low; inhibition of EC80 agonist-evoked calcium signal; activity change, negative = inhibition, % (test concentration not listed); actives 0.02% (n = 390,000); in the data active means activity change below about -50%; inconclusive means about -30% to -50%; inactive means above about -30%;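 further: stimulus is agonist 54-4 at its EC80 concentration; on the % scale 0 is the no-effect control and ±100 the full control effect; compound concentration not given in the record; the text of the record puts the active cut at -80%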
Target sequence (Q9GZU1 whole entry, looked up): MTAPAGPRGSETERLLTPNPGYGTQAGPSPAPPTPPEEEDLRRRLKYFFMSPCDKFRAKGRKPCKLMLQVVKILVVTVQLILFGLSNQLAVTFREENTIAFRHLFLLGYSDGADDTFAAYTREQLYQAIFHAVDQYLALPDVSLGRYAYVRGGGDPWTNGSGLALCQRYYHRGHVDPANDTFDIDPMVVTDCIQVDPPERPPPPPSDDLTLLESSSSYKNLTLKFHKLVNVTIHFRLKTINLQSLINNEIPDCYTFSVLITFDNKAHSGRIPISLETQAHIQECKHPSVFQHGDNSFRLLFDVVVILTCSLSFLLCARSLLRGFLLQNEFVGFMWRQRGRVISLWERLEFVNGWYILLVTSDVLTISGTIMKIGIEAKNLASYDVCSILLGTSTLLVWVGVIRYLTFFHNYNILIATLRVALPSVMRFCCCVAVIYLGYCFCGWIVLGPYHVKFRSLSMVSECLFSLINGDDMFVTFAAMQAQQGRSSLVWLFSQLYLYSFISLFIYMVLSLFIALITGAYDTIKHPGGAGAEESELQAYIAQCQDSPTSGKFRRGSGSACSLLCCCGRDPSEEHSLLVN
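Calcium fluorescence in TRPML1-DL cells induced overnight with Tet: a 110 s read after compound pin addition, then a 110 s antagonist read after challenge with 54-4 at 4 uM final (EC80).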
CtBP-E1A inh – blocks the CtBP interaction with E1A; activity change, % (no concentration beside the values); AlphaScreen GST-E1A/His-CtBP binding, 1536-well; active compounds read low; control for the full effect not named in the record; AID 651724; actives 0.49% (n = 340,000); in the data active means activity change below about -65%; inconclusive means about -30% to -65%; inactive means above about -30%; further: on the % scale 0 is the no-effect control and ±100 the full control effect
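In 5 uL wells, 23 nL compound meets equimolar GST-E1A and His-CtBP (5X stock 125 nM each) for 2 h, 37 °C. Beads (5X, 50 ug/mL) then 1 h, 37 °C, dark.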
TRPML1 agonist – human mucolipin-1 channel agonism; Q9GZU1; TRPML1-expressing cells, Ca2+ dye fluorescence, FDSS; host cell line not named in the record; reference of the full effect not given here; activation, % (concentration not given with the values); actives 0.12% (n = 410,000); AID 624414; in the data active = activation above about 50%; inconclusive = about 30% to 50%; inactive = below about 30%; further: 0% is about no effect; the text of the record puts the active cut at 80%
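Agonist activity was taken from a 110 s kinetic Ca2+ dye read on the FDSS after pinning compounds onto TRPML1-DL cells. The cells were seeded at 1,500/well with Tet inducer, incubated about 16 h, then dye-loaded at room temperature.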
D2 ag – human D2 receptor agonism in beta-arrestin assay; P14416; DiscoveRx PathHunter D2 beta-arrestin, luminescence, 90 min; 100% = 57 uM dopamine signal; activation, % (test concentration not listed); actives 0.084% (n = 360,000); in the data active = activation above about 40%; inconclusive = about 15% to 40%; inactive = below about 15%; further: compound concentration not given in the record; the text of the record calls up to 30% inactive
Target sequence (P14416 whole entry, looked up): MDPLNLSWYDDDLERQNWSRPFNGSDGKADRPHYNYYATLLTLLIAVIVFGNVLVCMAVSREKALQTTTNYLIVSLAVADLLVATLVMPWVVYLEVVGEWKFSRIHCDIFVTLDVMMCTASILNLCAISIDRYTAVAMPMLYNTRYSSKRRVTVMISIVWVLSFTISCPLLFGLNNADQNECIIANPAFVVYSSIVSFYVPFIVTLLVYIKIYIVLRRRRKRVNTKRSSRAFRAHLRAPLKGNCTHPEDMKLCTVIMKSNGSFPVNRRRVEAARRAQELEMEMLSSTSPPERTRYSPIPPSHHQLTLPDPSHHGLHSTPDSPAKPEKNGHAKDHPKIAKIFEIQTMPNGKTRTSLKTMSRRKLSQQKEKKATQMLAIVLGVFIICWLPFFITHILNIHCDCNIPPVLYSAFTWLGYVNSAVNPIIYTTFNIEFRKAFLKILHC
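DiscoveRx PathHunter D2 beta-arrestin cells (2,100/well) attached overnight, then compound-stimulated 90 min at 37 C in HBSS/10 mM HEPES/0.1% Tween-20 buffer; beta-galactosidase complementation read by luminescence after 1 h at ambient temperature. Dopamine 57 uM final (EC100) as control.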
PINK1 modulator – changes PINK1 expression | PINK1 immunofluorescence, high-content cytometry, 24 h | Potency, µM (series often up to 76.6 µM), for inactives: top-dose activation (PINK1 increase), actives largely listed as activators | actives 0.2% (n = 410,000) | AID 624263; active = well fitted activation curve with a large enough effect; inconclusive = small, poorly fitted or top-dose-only effect; inactive = flat fitted curve, though single readings scatter; cell line not stated here;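 further: potency means the concentration at half of the fitted maximal effect; % of control where 0% means no effect; nearly all actives have a fitted effect of over 65% in size; a mitochondrial uncoupler was the plate control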
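A stable cell line was treated with compounds at 5 concentrations for 24 hours, with CCCP as control. PINK1 levels and mitochondrial localization were measured by immunofluorescence with mitochondrial, cell and nuclear markers after fixation, read by laser-scanning cytometry.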
Six1-Eya2 blk – blocks human Six1 binding to Eya2; AlphaScreen GST-Six1/His-Eya2 binding, biochemical; active compounds read low; control for the full effect not named in the record; activity change, % (test concentration not listed); Q15475+O00167; actives 0.56% (n = 360,000); AID 651725; in the data active = activity change below about -65%; inconclusive = about -30% to -65%; inactive = above about -30%; further: on the % scale 0 is the no-effect control and ±100 the full control effect
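Six1/Eya2 binding was read as AlphaScreen signal after compounds were pinned into GST-Six1 plus His-tagged Eya2 (5X stock 250/500 nM) in pH 8.0 Tris/NaCl/TCEP buffer, beads added, then incubated 1 h, 37 C, dark.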
Numbers without * were called inactive; u = inconclusive; x = not tested or not shown; [ ] = remark or other dose.

SMILES	TRPML1 inh	CtBP-E1A inh	TRPML1 agonist	D2 ag	PINK1 modulator	Six1-Eya2 blk
Cc1nn(C)c2c1c(C(F)(F)F)cc(=O)n2CC(=O)NCc1ccccc1Cl	11	x	1.4	x	-0.9%	x
O=C(CSc1nnc(CNC(=O)c2c(F)cccc2F)o1)NCc1ccc2c(c1)OCO2	-7	1	-0.4	-2.0	-1.0%	3
CCOc1ccc(CNc2cccc(SC)c2)cc1	-9	-9	1.1	-3.3	0.4%	-8
CCOC(=O)CSc1nc2ccccc2c(=O)n1C1CCCC1	0	31	-1.0	-1.1	-0.9%	17
O=C(NCCc1csc(-c2ccc(C(F)(F)F)cc2)n1)c1ccccc1Cl	51	x	4.8	x	2.2%	x
Nc1ncnc2c1ncn2[C@@H]1O[C@H](CNCc2ccccc2OCc2ccc(Cl)cc2Cl)[C@@H](O)[C@H]1O	-12	4	-0.6	-4.1	1.2%	6
COC(=O)c1cc2oc(C)cc2n1CC(=O)N1CCCc2ccccc21	3	-16	4.6	-1.2	-2.7%	u
O=C1NC[C@H](CCCCN2CCN(CCc3ccccc3)C(=O)C2=O)N(Cc2ccccc2)C1=O	x	5	-0.5	x	0.7%	-4
O=C(COc1ccc(Cl)cc1)NC1CC1	30	5	-0.7	-1.3	0.2%	7
CCn1c(CNc2ccc(Cl)cc2)nnc1SCc1ccccc1	33	2	0.1	-2.6	1.2%	2
O=S1(=O)NC2c3ccccc3CC2O1 (configuration not stated)	-14	x	-0.6	-3.7	-0.4%	3
Cc1ccc(C(C(=O)NCc2ccco2)N(CC2CCCO2)C(=O)Cn2nnc3ccccc32)cc1 (configuration not stated)	12	4	0.6	-2.6	15%	-2
COc1ccc(C(=O)NCC(c2ccco2)S(=O)(=O)c2ccccc2)cc1 (configuration not stated)	-11	x	0.3	x	0.4%	x
O=C1c2ccccc2C(=O)N1OCc1cccc(Cl)c1	11	4	2.0	0.7	2.0%	13
CC(C)CN(C(=O)c1cccc(F)c1)c1c(N)n(CC(C)C)c(=O)[nH]c1=O	-1	9	-0.2	-0.5	0.4%	-1
CCc1ccc(NC(=O)c2cccc(NC3=NC4CS(=O)(=O)CC4S3)c2)cc1 (configuration not stated)	-7	-3	-0.3	-6.8	5.1%	4
Cc1cc(=O)oc(C)c1C(=O)N1CCN(c2ccc(F)cc2)CC1	5	6	0.0	-3.1	-1.0%	0
O=C(NCc1ccco1)C(=O)NCC(c1ccco1)N1CCOCC1 (configuration not stated)	x	8	x	0.2	0.5%	1
Cc1nnc(SCc2cc(=O)n3c(C)cccc3n2)s1	10	x	0.0	x	-8.8%	x
O=C(c1cccn2c(=O)c3cc(Cl)ccc3nc12)N1CCOCC1	5	-2	0.2	0.2	u	0
CC1(C(=O)OCC(=O)Nc2ccc3ccccc3c2)CC1(Cl)Cl (configuration not stated)	1	-3	1.2	1.4	-0.2%	19
CCOc1cc(C(=O)NC(=S)Nc2ccc(Cl)c(C(=O)O)c2)cc(OCC)c1OCC	0	-8	0.2	-3.1	0.6%	-6
COc1ccccc1NC(=O)Nc1nc(CC(=O)NCc2c(F)cccc2F)cs1	-10	2	1.7	1.9	-3.5%	-11
CCCCN(C=O)c1c(CC)nc2c(OCC(=O)C(C)(C)C)cccn12	x	-5	-0.5	5.9	1.0%	9
COc1ccc(C2C(C(=O)Nc3cc(C)on3)c3ccccc3C(=O)N2C)cc1OC (configuration not stated)	-3	9	-0.8	-0.4	5.6%	0

Continued; it opens with the 2 that closed the last part.
SMILES	TRPML1 inh	CtBP-E1A inh	TRPML1 agonist	D2 ag	PINK1 modulator	Six1-Eya2 blk
CCCCN(C=O)c1c(CC)nc2c(OCC(=O)C(C)(C)C)cccn12	x	-5	-0.5	5.9	1.0%	9
COc1ccc(C2C(C(=O)Nc3cc(C)on3)c3ccccc3C(=O)N2C)cc1OC (configuration not stated)	-3	9	-0.8	-0.4	5.6%	0
CCCCOC(=O)CSc1nc2c(c(=O)[nH]c(=O)n2C)n1C/C=C(\C)Cl	-6	3	-0.7	-5.5	0.0%	-2
O=C(CC(=O)NCCc1ccccc1)NCCc1ccccc1	15	8	-0.1	9.0	5.3%	4
CN(C)S(=O)(=O)c1cccc(C(=O)Nc2ccccc2)c1	-4	x	-0.7	6.5	0.3%	2
Cc1cccc(CSCCNC(=O)C2CCN(S(=O)(=O)Cc3ccccc3)CC2)c1	-23	x	-0.7	x	1.4%	x
COCCc1nnc(NC(=O)Cc2ccccc2)s1	5	1	1.7	-0.4	0.2%	16
CCOCCCNc1ncnc2c1nc1n2CCCC1	10	1	0.1	-2.9	0.7%	0
CCC(=O)Nc1cc(-c2nc3cc(C)cc(C)c3o2)ccc1C	19	x	-0.6	x	-0.2%	x
Cc1ccc(NC(=O)COC(=O)c2cccc(N3C(=O)c4ccccc4C3=O)c2)cc1	22	0	1.0	-1.1	10%	0
CCCC(=O)Nc1sc2c(c1C(=O)Nc1ccccn1)CCCC2	1	0	-0.6	-1.9	2.9%	-17
CCc1noc(C)c1C(=O)N1CCN(S(=O)(=O)c2ccc(Br)cc2)CC1	-7	18	-0.2	-4.8	-0.6%	0
O=S(=O)(Nc1cccc(-n2cnnn2)c1)c1cnc(Cl)c(Cl)c1	21	x	3.9	1.1	2.0%	-5
COc1ccc(NC(=O)CSc2nc3c(c(=O)n2C)SCC3)cc1OC	0	-7	0.1	2.2	-0.9%	3
CCC(=O)N(CC(=O)Nc1sc(C)c(C)c1C(N)=O)C1CCCCC1	32	9	-0.1	-2.0	3.4%[38.3 µM]	-2
Fc1cccc(Cl)c1CNc1ccc(N2CCCC2)cc1	-19	u	2.4	-0.2	9.6%	u
Cc1nc(SC(C(=O)c2ccccc2)c2ccccc2)n[nH]1 (configuration not stated)	-11	16	0.8	-2.6	0.0%[38.3 µM]	9
CCN(CC(=O)NC1CCS(=O)(=O)C1)S(=O)(=O)c1cc([N+](=O)[O-])ccc1C (configuration not stated)	u	8	1.0	2.7	-0.2%	3
CCC(C)NC(=O)C1CCCN(S(=O)(=O)c2ccc(-n3cnnn3)cc2)C1 (configuration not stated)	7	3	-1.1	-3.0	0.3%	-2
COc1cc(OC)c(C2=NOC(C(=O)N3CCc4ccccc4C3)C2)cc1Cl (configuration not stated)	-1	-26	1.1	-1.5	12%[38.3 µM]	-25
COCCN(C(=O)CSc1nnc(-c2cccc(Cl)c2)n1N)c1c(N)n(CC(C)C)c(=O)[nH]c1=O	-4	-1	-0.1	-0.5	-0.7%	2
CC(C)C(=O)NNc1ccc(C(F)(F)F)cn1	-1	0	0.7	-3.8	-0.2%	1
Cc1cc(NC(=O)CC2(CC(=O)O)CCCC2)n(C)n1	-9	-2	-0.4	-1.2	-0.7%	3
O=C(c1ccccc1F)N(Cc1nc2ccccc2c(=O)[nH]1)C1CCCC1	0	x	1.2	-5.1	2.4%	-7
CC(=O)c1cccc(CN2CCN(Cc3ccc(F)cc3)C(CCO)C2)c1 (configuration not stated)	-20	x	0.3	-6.6	0.2%	-1
CCCCOc1cccc(C(=O)O)c1	14	4	0.4	2.3	-2.2%	11
COc1ccc2[nH]c3c(c2c1)CNCC3	-2	-1	0.1	-0.3	2.4%	-6

One compound at a time, as listed above. Order of values: TRPML1 inh, CtBP-E1A inh, TRPML1 agonist, D2 ag, PINK1 modulator, Six1-Eya2 blk
`CCC(=O)Nc1cc(-c2nc3cc(C)cc(C)c3o2)ccc1C` as listed: 19, x, -0.6, x, -0.2%, x
`CCc1noc(C)c1C(=O)N1CCN(S(=O)(=O)c2ccc(Br)cc2)CC1` as listed: -7, 18, -0.2, -4.8, -0.6%, 0
`CCCC(=O)Nc1sc2c(c1C(=O)Nc1ccccn1)CCCC2` as listed: 1, 0, -0.6, -1.9, 2.9%, -17
`CCCCOC(=O)CSc1nc2c(c(=O)[nH]c(=O)n2C)n1C/C=C(\C)Cl` as listed: -6, 3, -0.7, -5.5, 0.0%, -2
`O=C(CC(=O)NCCc1ccccc1)NCCc1ccccc1` as listed: 15, 8, -0.1, 9.0, 5.3%, 4

Additional results.
SMILES	TRPML1 inh	CtBP-E1A inh	TRPML1 agonist	D2 ag	PINK1 modulator	Six1-Eya2 blk
CCN(CC)C(=O)c1c(-c2ccccc2)c(-c2ccccc2)nn(C)c1=O	-4	x	1.1	x	-0.9%	x
COc1ccccc1CNC(=O)CCC(=O)Nc1nnc(C)s1	5	-1	-0.8	-4.8	-1.1%	4
CC(C)Cn1c(SCC(=O)N2CCc3ccccc3C2)nc2cc(Cl)ccc2c1=O	6	-4	1.3	-1.3	2.6%	3
Cc1ccccc1OCc1ccc(-c2nc(C#N)c(N3CCCCC3)o2)o1	-4	x	0.4	x	-0.1%	x
O=C(O)c1ccc([N+](=O)[O-])cc1Sc1ccsc1	42	-1	0.0	-6.6	-3.1%	14
CCC(O)CNc1nc(SC)nc2sc3c(c12)CCN(C)C3 (configuration not stated)	-1	-4	0.5	-0.4	-2.5%[38.3 µM]	0
COc1cc(C(c2c(C(=O)O)[nH]c3ccccc23)c2c(C(=O)O)[nH]c3ccccc23)ccc1OCc1ccccc1	-6	-5	0.4	0.1	7.7%	-16
CCn1c(C)nc2cc(OC)ccc21	17	3	-0.1	-1.5	2.1%	2
CCOC1CCCc2oc(-c3ccc(N(C)C)cc3)c(C(=O)OC)c21 (configuration not stated)	x	2	-0.8	x	4.3%	1
CC(NC(=O)c1cccc(S(=O)(=O)N2CCc3ccccc3C2)c1)c1ccco1 (configuration not stated)	-11	-4	2.0	1.4	19%	-2
CCOc1ccc(-c2cc(CCCC(=O)NCCc3ccc(OC)c(OC)c3)no2)cc1	-14	x	1.0	x	0.5%	x
Cc1ccc(NC(=O)CCN2C(=O)C3CCCCC3C2=O)cc1[N+](=O)[O-] (configuration not stated)	13	7	-0.4	-1.7	1.9%	-4
COc1cc(CNc2ncn[nH]2)cc(Br)c1OC	-10	2	-0.8	0.1	-6.2%[38.3 µM]	3
COc1ccc(NC(=O)c2c(NCc3cccs3)sc3c2CCCC3)c(OC)c1	-11	x	0.5	x	1.5%	x
Cc1cccc(C)c1NC(=O)C(c1ccccc1)N1CCC1=O (configuration not stated)	2	-1	1.1	-2.3	-1.8%	3

Entries listed so far containing a COOH group, in the order listed:
SMILES	TRPML1 inh	CtBP-E1A inh	TRPML1 agonist	D2 ag	PINK1 modulator	Six1-Eya2 blk
CCOc1cc(C(=O)NC(=S)Nc2ccc(Cl)c(C(=O)O)c2)cc(OCC)c1OCC	0	-8	0.2	-3.1	0.6%	-6
Cc1cc(NC(=O)CC2(CC(=O)O)CCCC2)n(C)n1	-9	-2	-0.4	-1.2	-0.7%	3
CCCCOc1cccc(C(=O)O)c1	14	4	0.4	2.3	-2.2%	11
O=C(O)c1ccc([N+](=O)[O-])cc1Sc1ccsc1	42	-1	0.0	-6.6	-3.1%	14
COc1cc(C(c2c(C(=O)O)[nH]c3ccccc23)c2c(C(=O)O)[nH]c3ccccc23)ccc1OCc1ccccc1	-6	-5	0.4	0.1	7.7%	-16
